NS1 function inh: qHTS Assay for Inhibitors of Influenza NS1 Protein Function; S. cerevisiae slowed by influenza A NS1, growth recovery by OD600; Potency, µM (titrated, usually from 46.1 µM), for inactives: top-dose activity, positive = more growth; hit rate 0.4% among 270,000; active means well fitted rising curve with a large enough effect; inconclusive means small, poorly fitted or top-dose-only effect; inactive means no such curve, though single readings can be large or run the other way; note: nearly all actives have a fitted effect of over 50% in size
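In this qHTS, NS1 from influenza A is expressed in budding yeast, where it slows growth. Cells are switched from glucose to 2% galactose medium (pH 6.0, -URA), treated with compound, and growth recovery is read at OD600.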
2A StopGo: High Throughput Screening for Foot and Mouth Disease Virus Antivirals | human cells with a luciferase reporter of 2A StopGo recoding; control for the full effect not named in the record | Potency, µM (series often up to 57.9 µM), for the others: at the highest dose signal change, negative = less light | hit rate 1.2% among 410,000 | AID 1159524, 2015; active = well fitted falling curve with a large enough effect; inconclusive = small, poorly fitted or top-dose-only effect; inactive = no such curve, though single readings can be large or run the other way; tested in HEK293T cells; note: % is set by controls: 0 for no effect and ±100 for the full control effect; nearly all actives have a fitted effect of over 45% in size; luciferase light after 4 h
SARS PLP yeast: qHTS of Yeast-based Assay for SARS-CoV PLP; S. cerevisiae expressing SARS-CoV PLpro, growth rescue; control for the full effect not named in the record; hit rate 0.19% among 330,000; Potency, µM (series often up to 32.9 µM), without a hit: at the top dose activity, positive = growth rescue; active means well fitted rising curve with a large enough effect; inconclusive means small, poorly fitted or top-dose-only effect; inactive means no such curve, though single readings can be large or run the other way; note: 0% is about no effect; nearly all actives have a fitted effect of over 55% in size; growth read by luminescence after 48 h
RE007 growth inh: qHTS Assay for Inhibitors of the HIV-1 protein Vpr | S. pombe RE007 Vpr strain, BacTiter-Glo ATP luminescence, 24 h; control for the full effect not named in the record | hit rate 0.21% among 360,000 | Potency, µM (highest dose often 92.2 µM), for the others: at the highest dose activity change, negative = less growth | AID 651644, 2012; active = well fitted falling curve with a large enough effect; inconclusive = small, poorly fitted or top-dose-only effect; inactive = no such curve, though single readings can be large or run the other way;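 note: % is set by controls: 0 for no effect and ±100 for the full control effect; nearly all actives have a fitted effect of over 50% in size; the assay follows cell death caused by Vpr and the record does not say whether a fall means rescue or toxicity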
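Fission yeast strain RE007, carrying one chromosomally integrated HIV-1 vpr copy, was seeded at OD 0.01 in PMG+AL medium with 23 nL pinned compound. After 24 h at 30 °C and 99% humidity, viability was read by BacTiter-Glo luminescence.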
Lassa entry inh: qHTS for Inhibitors of binding or entry into cells for Lassa Virus; Lassa virus pseudotype entry inhibition, cell reporter; control for the full effect not named in the record; AID 540256, 2011; hit rate 1.2% among 300,000; Potency, µM (highest dose often 37.9 µM), without a hit: top-dose activity change, negative = inhibition, actives largely listed as inhibitors; active means well fitted inhibition curve with a large enough effect; inconclusive means small, poorly fitted or top-dose-only effect, or effect the other way; inactive means flat fitted curve, though single readings scatter; tested in HEK293 cells; note: % is set by controls: 0 for no effect and ±100 for the full control effect; nearly all actives have a fitted effect of over 50% in size; luciferase read-out
MARV entry inh: qHTS for inhibitors of binding or entry into cells for Marburg Virus; Marburg virus pseudotyped entry inhibition, cell reporter; control for the full effect not named in the record; about a third of the inactives were read at about 46 µM; Potency, µM (highest dose often 37.8 µM), for inactives: at the highest dose activity change, negative = inhibition, usual class: inhibitors; hit rate 1.8% among 300,000; AID 540276, 2011; active = well fitted inhibition curve with a large enough effect; inconclusive = small, poorly fitted or top-dose-only effect, or effect the other way; inactive = flat fitted curve, though single readings scatter; tested in HEK293 cells; about a fifth of its hits are not listed in these tables; note: % is set by controls: 0 for no effect and ±100 for the full control effect; luciferase read-out
Cruzain inh Det: qHTS Assay for Promiscuous and Specific Inhibitors of Cruzain (with detergent); Cruzipain (Trypanosoma cruzi), P25779; purified cruzain, Z-FR-AMC fluorescence, 0.01% Triton; Potency, µM, for the others: max response, negative = inhibition, actives largely listed as inhibitors; hit rate 0.43% among 200,000; AID 1478, 2009;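 note: plate controls were neutral wells for no effect and buffer without enzyme for full effect; nearly all actives have a fitted effect of over 40% in size; top concentration of the series not given in the record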
Target sequence (P25779 123-467 limits assumed): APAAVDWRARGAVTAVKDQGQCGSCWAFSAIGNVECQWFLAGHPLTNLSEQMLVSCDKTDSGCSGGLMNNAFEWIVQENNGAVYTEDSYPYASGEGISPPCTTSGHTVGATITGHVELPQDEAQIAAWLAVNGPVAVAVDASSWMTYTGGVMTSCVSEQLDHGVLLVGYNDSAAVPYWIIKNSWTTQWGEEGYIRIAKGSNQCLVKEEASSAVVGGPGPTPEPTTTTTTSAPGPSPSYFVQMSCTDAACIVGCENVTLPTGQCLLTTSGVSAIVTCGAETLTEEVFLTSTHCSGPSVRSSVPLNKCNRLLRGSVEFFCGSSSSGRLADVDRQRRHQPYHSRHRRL
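Z-FR-AMC hydrolysis (2 uM substrate) by cruzain (1.5 nM) monitored kinetically at ex 360/em 450 nm after 15 min room-temperature compound exposure; 0.01% Triton X-100, pH 5.5, 5 mM DTT.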
Cruzain noTriton: qHTS Assay for Promiscuous and Specific Inhibitors of Cruzain (without detergent) | Potency, µM, for inactives: max response, negative = inhibition, hits mostly inhibitors | Cruzipain (Trypanosoma cruzi), P25779 | purified cruzain, Z-FR-AMC fluorescence, no detergent | hit rate 2.3% among 200,000 | AID 1476, 2009;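 note: plate controls were enzyme without inhibitor for no effect and buffer without enzyme for full effect; nearly all actives have a fitted effect of over 40% in size; top concentration of the series not given in the record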
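Purified cruzain at 1.5 nM, pre-incubated 15 min with compound at room temperature in 100 mM sodium acetate pH 5.5, 5 mM DTT, 0.00005% Triton X-100. Reaction started with 2 uM Z-FR-AMC; AMC fluorescence increase over 60 s gives rate.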
The depositor's hits bear a star; ? = inconclusive; nt = no result given; & = joins results of further samples; [ ] = remark or other dose. Unless noted, calls come from the whole dose curve; as a rule, active = well fitted curve in the direction sought with a large enough effect; inconclusive = small, poorly fitted or top-dose-only effect, or another doubt; inactive = no such curve, though single readings can be large; an effect the other way counts as inactive or inconclusive. Potency is the fitted concentration of half-maximal effect.

SMILES	NS1 function inh	2A StopGo	SARS PLP yeast	RE007 growth inh	Lassa entry inh	MARV entry inh	Cruzain inh Det	Cruzain noTriton
Cc1ccc(C(C[N+](=O)[O-])c2c(-c3ccccc3O)[nH][nH]c2=O)cc1 (stereo not drawn)	-18.0%	?	-15.6%	?	-1.5%	?	-8.3%	1.1%
CCN(CC)C(=O)CCCOc1ccc(Cl)cc1Cl	-80.9%	6.8%	1.4%	10.0%	15.2%	6.6%	-4.7%	14.9%
Cc1cc(C(=O)Nc2sc(C)c(C)c2C#N)no1	-37.2%	40.0%[activator]	-14.9%	-16.8%	9.6%	1.7%	4.6%	-7.6%
CCN(CC)CCn1c2c(c(SCC(=O)Nc3cccc(C(C)=O)c3)nc1=O)CCCC2	nt	13.1%	3.0%	-12.7%	6.5%	?	nt	nt
O=C(CC1C(=O)NCCN1Cc1ccc(-c2ccccc2)cc1)NCC1CC1 (stereo not drawn)	4.3%	-23.1%	-1.3%	-5.5%	?	?	nt	nt
COc1cccc(C(=O)N(CN2CCCC2=O)c2cccc(Cl)c2)c1OC	-3.9%	-8.3%	4.3%	-6.8%[3.69 µM]	?	-22.3%	3.5%	-1.0%
CC(C)Cn1c(=O)c2sccc2n2c(CCCC(=O)NCc3ccccc3Cl)nnc12	nt	-15.2%	nt	nt	9.0%[46.1 µM]	nt	0.3%	2.0%
CCc1cccc(OCCN2CCCC2)c1	-9.1%	-2.7%	9.6%	6.0%	?	-20.5%	1.1%	-1.8%
Cc1ccc(C2(C)NC(=O)N(CC(=O)N(C)CC(=O)Nc3cccc4ccccc34)C2=O)cc1 (stereo not drawn)	nt	-18.5%	4.1%	-6.9%	-2.8%	?	nt	nt
Cc1ccc(S(=O)(=O)N(CC(=O)N2CCCCCC2)c2ccccc2)cc1	4.0%	63.5%[activator]	1.0%	12.6%	6.51µM*	25.5%	-1.1%	-0.1%
NC(=O)CSc1ncc2c(n1)-c1ccccc1N(Cc1cccc(F)c1)S2(=O)=O	nt	11.9%	nt	nt	0.1%[46.1 µM]	nt	0.8%	-13.0%
CC(C)(Oc1ccc(Cl)cc1)C(=O)NCCN1C(=O)S/C(=C/c2cccnc2)C1=O	-0.5%	?	-18.5%	11.6%	-15.4%	-41.3%	-11.9%	?
CCOC(=O)c1c(C)c(C(=O)NCc2ccc(OC)cc2)c(C)n1CC	nt	-6.5%	nt	nt	nt	?	-0.1%	4.8%
Cc1ccc(CNS(=O)(=O)c2ccccc2[N+](=O)[O-])cc1	-0.4%	42.5%[activator]	-1.5%	-16.2%	0.0%	-12.6%	nt	nt
CC(OC(=O)/C(C#N)=C/c1ccc(N(C)C)cc1)C(=O)N(C)Cc1ccccc1 (stereo not drawn)	1.9%	5.5%	-0.5%	3.6%	nt	nt	nt	nt
COC(=O)c1ccccc1NC(=O)Nc1cccc(OCc2cc(=O)n3cccc(C)c3n2)c1	nt	0.0%	nt	nt	3.2%[46.1 µM]	nt	1.8%	-3.0%
Cc1nnc(SCC(=O)NNC(=O)c2ccco2)s1	nt	1.2%	-3.8%	-12.9%	-1.4%	?	nt	nt
C=CCn1c(NC(C)c2cc(Cl)ccc2O)nc2ccccc21 (stereo not drawn)	-174.5%	?	-18.8%	-15.9%	nt	nt	-2.5%	-1.2%
Cc1ccc2c(c1)c1n[nH]c(=S)nc1n2CCc1ccccc1	2.7%	-29.5%	0.2%	1.7%	nt	nt	nt	nt
CC1CC(C)CN(C(=O)c2cccc(S(=O)(=O)Nc3cc(C(F)(F)F)ccc3Cl)c2)C1 (stereo not drawn)	-2.5%	-17.8%	-24.5%	13.5%	?	?	-10.8%	?
COc1ccc(CNC(=O)CSCc2nc(-c3ccccc3F)oc2C)cc1	nt	-18.8%	nt	nt	-29.6%[46.1 µM]	?	0.8%	-3.0%
N#C/C(=C\Nc1ccccc1SC(F)(F)F)c1nc(-c2ccc(Cl)cc2)cs1	?	-20.1%	-3.6%	-0.8%	2.0%	10.9%	-0.1%	-21.1%
Cc1cc2ccccc2c(=O)n1CC(=O)N1CCN(c2cccc(Cl)c2)CC1	2.5%	-23.4%	1.0%	-5.1%	12.6%	-1.2%	-1.0%	-3.9%
O=C(NC(=S)NCC1CCCO1)c1ccccc1 (stereo not drawn)	12.9%	50.0%[activator]	19.3%	-10.2%	3.5%	?	-0.5%	5.8%
CCN(CC)S(=O)(=O)c1cccc(NC(=O)CCNC(=O)c2ccccc2Cl)c1	-1.1%	-5.7%	-0.2%	-5.7%	?	?	nt	nt

Next section:
SMILES	NS1 function inh	2A StopGo	SARS PLP yeast	RE007 growth inh	Lassa entry inh	MARV entry inh	Cruzain inh Det	Cruzain noTriton
CCC(C)NC(=O)NC1C(NC(=O)NC(C)CC)N(C)C(=O)N1C (stereo not drawn)	-9.9%	11.7%	-16.0%	2.3%	21.3%	?	6.2%	-12.4%
Cc1ccc(S(=O)(=O)NCc2cccnc2)cc1C(=O)NC1CCCCC1	nt	24.4%	nt	11.7%	-22.1%	1.3%	nt	nt
COc1cc(C2C(C#N)=C(N)OC3=C2C(=O)CCC3)ccc1OC(=O)N1CCOCC1 (stereo not drawn)	0.2%	nt	6.3%	8.4%	-3.7%	-0.4%&-2.7%	3.0%	-9.5%
O=C(N/N=C/C(Br)=C\c1ccccc1)c1ccco1	-68.3%	1.1%	-5.0%	-9.5%	9.3%[46.1 µM]	?	nt	nt
O=C(Nc1nn[nH]n1)c1ccc(S(=O)(=O)N2CCCCC2)cc1	nt	-2.0%	-7.5%	2.6%	3.6%	0.9%	nt	nt
CC(C)C(=O)Nc1ccc2nc(SCCOc3ccccc3)sc2c1	nt	-3.1%	nt	nt	-1.2%[46.1 µM]	-19.8%[46.1 µM]	-1.3%	0.1%
Cc1cccn2c(=O)c3cc(C(=O)NCc4ccco4)c(=N)n(C(C)C)c3nc12	-7.7%	-7.9%	-2.7%	-12.5%	?	?	-22.7%	0.6%
CCc1ccccc1NC(=O)N1CCCc2ccccc21	3.8%	7.0%	1.1%	1.1%	9.7%[46.1 µM]	12.8%[46.1 µM]	nt	nt
O=C(CN1CCC(c2nc3ccccc3s2)CC1)NCc1cccs1	-7.7%	15.8µM*	1.3%	-4.3%	?	?	-0.9%	-20.7%
Cc1[nH]c2ccccc2c1C(=O)CSc1ccccc1	4.5%	7.0%	-20.9%	-15.8%	6.9%	?	-5.4%	1.9%
O=C(Nc1c(C(=O)N2CCOCC2)oc2ccccc12)c1cccc([N+](=O)[O-])c1	-1.6%	-5.4%	-1.8%	6.4%	10.4%[46.1 µM]	2.3%[46.1 µM]	nt	nt
CN(C(=O)CN1C(=O)S/C(=C\c2ccccc2F)C1=O)C1CCS(=O)(=O)C1 (stereo not drawn)	1.8%	13.3%	-0.1%	2.1%	nt	nt	nt	nt
NC(=O)c1cccc(CC(=O)c2ccccc2)c1	10.3%	2.3%	3.6%	11.0%	nt	nt	nt	nt
CN1C(=O)N(C)C(=O)C2(Cc3cc(NC(=O)c4ccc(F)cc4)ccc3N3CCCC32)C1=O (stereo not drawn)	?	-1.9%	-0.3%	-10.1%	6.3%	-11.5%[46.1 µM]	nt	nt
CCCCc1nc2cc(C(=O)N3CCC(O)CC3)ccc2o1	-5.2%	34.4%[activator]	4.0%	-10.5%	nt	nt	nt	nt
COc1ccc(C2C(C(C)=O)=C(C)Nc3ncnn32)c(OC)c1OC (stereo not drawn)	-0.3%	-20.8%	2.8%	-2.6%	?	-21.0%	nt	nt
CCOc1ccc(N(CC)C(=O)COc2cc(=O)n(CC)c3ccccc23)cc1	-6.5%	-11.8%	-1.6%	1.0%	-26.9%	-17.1%	-5.1%	25.3%
Cc1ccc(-n2c(=O)c3oc4ccccc4c3n(CC(=O)Nc3ccc(F)c(Cl)c3)c2=O)cc1C	nt	8.4%	nt	nt	4.0%[46.1 µM]	nt	-2.9%	10µM*
CCOc1ccccc1C(=O)n1nc(C)cc1C	7.7%	6.0%	?	3.7%	16.0%	11.9%	6.0%	-9.2%
CC1=NN(C(=O)CCCc2ccccc2)C(O)(C(F)(F)F)C1 (stereo not drawn)	1.0%	3.4%	0.7%	5.8%	-1.1%	?	nt	nt
CC(CCc1ccccc1)NC(=O)c1ccncc1 (stereo not drawn)	7.8%	-0.3%	-8.0%	-17.8%	10.0%	10.1%	2.0%	-2.5%
CN(CCC1CCCCO1)C(=O)CCc1nnc(C2CCCCC2)o1 (stereo not drawn)	0.7%	48.7%[activator]	1.1%	16.7%	nt	nt	nt	nt
COC(=O)c1cc2sc(C)cc2n1Cc1ccccc1	nt	-7.2%	nt	nt	nt	-3.8%[46.1 µM]	-7.4%	-12.4%
Cc1cc(C)nc(SCc2ccc(F)cc2)n1	3.0%	-8.8%	-0.2%	1.2%	7.6%	16.3%[46.1 µM]	nt	nt
Cc1ccc(C)c(Cn2nnc3c(=O)[nH]c(C4CCN(C(=O)c5cccs5)CC4)nc32)c1	-7.0%	?	11.6%	9.8%	?	?	2.2%	?
CCSc1nsc(NC(=O)Nc2ccccc2Cl)n1	nt	2.6%	nt	1.0%	-22.7%[46.1 µM]	?	nt	nt

3 compounds from above, showing only Lassa entry inh, NS1 function inh and Cruzain noTriton.
structure	Lassa entry inh	NS1 function inh	Cruzain noTriton
Cc1[nH]c2ccccc2c1C(=O)CSc1ccccc1	6.9%	4.5%	1.9%
O=C(Nc1c(C(=O)N2CCOCC2)oc2ccccc12)c1cccc([N+](=O)[O-])c1	10.4%[46.1 µM]	-1.6%	nt
CN(C(=O)CN1C(=O)S/C(=C\c2ccccc2F)C1=O)C1CCS(=O)(=O)C1 (stereo not drawn)	nt	1.8%	nt

Compound activity: PubChem BioAssay, National Center for Advancing Translational Sciences (NCATS)
